GIV Gai3 FP = inhibitors of GIV GBA-motif binding to rat Galpha-i3 | P08753 | Galpha-i3/FITC-GIV peptide fluorescence polarization, 90 min; hits give low values; scaled: aluminum fluoride 0%, vehicle 100% | percent of control (FP), % (test concentration not listed) | 0.42% of 210,000 active | AID 1224905;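 active = replicate mean at 85% of control or lower, very high polarization wells dropped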;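 also: wells of about 15 µL received 100 nL stock; the first replicate is given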
Target sequence (P08753 whole entry, looked up): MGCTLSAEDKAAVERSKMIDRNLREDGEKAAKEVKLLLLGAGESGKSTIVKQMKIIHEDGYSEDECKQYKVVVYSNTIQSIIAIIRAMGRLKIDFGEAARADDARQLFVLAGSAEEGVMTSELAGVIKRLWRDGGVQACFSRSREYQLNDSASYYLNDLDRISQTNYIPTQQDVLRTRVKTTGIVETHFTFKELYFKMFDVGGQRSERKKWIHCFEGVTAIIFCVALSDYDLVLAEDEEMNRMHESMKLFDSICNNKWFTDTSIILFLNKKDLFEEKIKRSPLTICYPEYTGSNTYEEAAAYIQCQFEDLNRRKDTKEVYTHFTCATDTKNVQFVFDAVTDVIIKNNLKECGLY
HCMV UL50-53 inh = cytomegalovirus nuclear egress complex inhibition | HTRF UL50-UL53 interaction, normalized percent inhibition | 0.15% of 190,000 active | inhibition, % (concentration not given with the values);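 active = both replicates at 50% or more, plus weaker picks with an unusually low signal ratio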;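 also: stock transfer was 100 nL into about 20 µL; 0% = negative control wells and 100% = wells with untagged competitor protein; inactives centre near -12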
Sa growth inh = blocks Staphylococcus aureus growth | S. aureus RN4220 growth, OD600, 20 h, 42 °C; hits give low values | relative growth, % (test concentration not listed) | 0.53% of 170,000 active;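 active = growth at 42 °C up to 50% and 20 or more points under that at 30 °C, or under 10% at both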;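 also: 300 nL library stock went into each well; scaled to the means of positive and negative controls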
Sa growth inh second temp = second read-out of Sa growth inh, no call of its own (marks repeat the call); relative growth, %; measured here: growth at 30 °C;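 optical density after 20 h as mean of two plates; 100% = untreated growth and lower means inhibition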
* hit, by the source's call; nt = not tested or not shown; & = joins results of further samples. Compounds as they come; overall some 0.8% were active at least once.

SMILES	GIV Gai3 FP	HCMV UL50-53 inh	Sa growth inh	Sa growth inh second temp
COc1ccccc1CNC(=O)c1c2c(nc3ccccc13)C(=O)N(C1CCCCC1)C2	101	nt	112	95
O=C(O)CCc1nc(-c2cccnc2)no1	104	-14	93	92
CCCCn1nc(C)c(C(=O)NC2=NCCS2)c1Cl	nt	-16	93	87
CCC12CN3CC(CC)(CN(C1)C31C(=O)N(C)c3ccc(C)cc31)C2=O (stereo not drawn)	103	-12	96	86
CCOc1ccc(NC(=O)CSc2nc3[nH]ncc3c(=O)n2-c2ccccc2OC)cc1	103	7	104	90
CCn1c(C(=O)N2CCC(C(=O)N3CCN(c4ccc(OC)cc4)CC3)CC2)cc2sccc21	99	-12	125	90
CC(C)CCOC(=O)c1cc2cc(Br)ccc2oc1=O	105	nt	109	80
COc1ccc(C2CCCN2C(=O)c2cc(-c3ccc4c(c3)OCO4)on2)cc1 (stereo not drawn)	101	-22	nt	nt
COC(=O)c1ccc(Sc2ccc(Cl)cc2)c(N)c1	103	nt	89	83
CCCN(c1nc2nc(C)c(Cl)c(C)n2n1)S(=O)(=O)c1ccc(C)cc1	97	-1	nt	nt
Cc1ccc(C2Nc3ccccc3C(C)(C)O2)o1 (stereo not drawn)	102	-6	118	92
Cc1nn(C)c(C)c1S(=O)(=O)N(Cc1cc(CN2CCOCC2)cs1)c1ccc(F)cc1	104	-22	nt	nt
CN(C)c1cc(C(F)(F)F)cnc1/C(N)=N/O	97	9	116	95
Cc1cc(N(CCO)Cc2ccccc2)n2nc(-c3ccccc3C)nc2n1	103	-6	nt	nt
CC(C)(C)c1ccc(NC(=O)/C=C/c2ccc(-c3cccs3)s2)cc1	107	nt	90	97
O=C(O)CN1CC(=O)NC1=O	99	-2	129	91
O=S(=O)(c1cccc(C(F)(F)F)c1)n1nc(C(F)(F)F)c2cnccc21	101	-4	105	91
CCNC(=S)N1CCC(C(=O)c2ccc3c(c2)OCCO3)CC1	103	-2	100	99
O=C(O)c1ccc(OC(=O)c2ccccc2)cc1	110	-14	96	92
CC(C)c1c(C#N)c(N)nc(SCC(=O)c2ccc(Cl)c(Cl)c2)c1C#N	100	nt	110	95

Results in Sa growth inh, HCMV UL50-53 inh and Sa growth inh second temp, for 3 of the compounds above:
canonical_smiles | Sa growth inh | HCMV UL50-53 inh | Sa growth inh second temp
CCCCn1nc(C)c(C(=O)NC2=NCCS2)c1Cl | 93 | -16 | 87
CC(C)c1c(C#N)c(N)nc(SCC(=O)c2ccc(Cl)c(Cl)c2)c1C#N | 110 | nt | 95
Cc1cc(N(CCO)Cc2ccccc2)n2nc(-c3ccccc3C)nc2n1 | nt | -6 | nt

Remaining list, next part.
SMILES	GIV Gai3 FP	HCMV UL50-53 inh	Sa growth inh	Sa growth inh second temp
O=C(CN1CCSc2ccccc21)N1CCN(c2ccccc2)CC1	111&98	-14	94	100
Cc1cc(=O)[nH]c2c1c(-c1cccs1)nn2C	107	3	114	97
O=C(CSc1ccccc1)N1CCC2(CC1)Nc1cc(F)ccc1-n1cccc12	103	-13	nt	nt
Cc1ccc(/C=N/n2cnc3sc(C)c(C)c3c2=O)o1	nt	-52	101	87
O=C(Nc1ccc(C(F)(F)F)cc1)C1CCN(c2cnccn2)CC1	102	-26	97	83
CCOc1cc(Br)c(CC#N)cc1OCC	nt	5	94	94
CC1CCC2(CC1)NC(=O)N(NC(=O)CN1CCN(Cc3ccc4c(c3)OCO4)CC1)C2=O (stereo not drawn)	nt	-16	97	94
CCN1C(=O)S/C(=C\c2cc(C)n(-c3ccccn3)c2C)C1=O	nt	-57	92	95
CN(CC(=O)N1CCc2ccccc21)C1CCS(=O)(=O)C1 (stereo not drawn)	nt	4	112	87
Cc1nn(Cc2ccc(F)cc2)c(C)c1NC(=O)c1cc(-c2ccc3c(c2)OCO3)on1	107	nt	106	83
CC(C)(C)S(=O)(=O)/C(C#N)=C/Nc1ccccn1	100	-37	110	89
O=S(=O)(c1cnc[nH]1)N1CCCCC1	97	1	99	90
Cc1ccc(S(=O)(=O)NC2=NCN(C3CCN(Cc4ccccc4)CC3)CN2)cc1	98	nt	99	86
COc1ccc(CCCc2nnc(SCC(=O)Nc3ccc(F)cc3)o2)cc1C	108	-21	107	84
COc1ccc(NC(=O)c2nnc(COCC(=O)NC3CCN(Cc4ccccc4)CC3)s2)cc1	106	-23	nt	nt
Cc1c(C(=O)N2CCC(C)CC2)sc2ncnc(N3CCN(C)CC3)c12	105	-25	nt	nt
CC(C)(C)c1ccc(C(=O)Nc2ccc3c(c2)CCCN3C(=O)c2cccs2)cc1	98	nt	106	97
c1ccc(C2=Nn3c(nnc3-c3ccccc3)SC2)cc1	105	20	102	88
COc1cccc(NC(=S)/N=C(\N)Nc2nc(C)c3ccccc3n2)c1	95	nt	97	90
O=C(Cn1c(=O)[nH]c2c(-c3ccccc3F)c[nH]c2c1=O)NCc1cccnc1	101	-8	nt	nt
COc1ccc(/C=C/c2nc(C#N)c(N3CCCCCC3)o2)cc1OC	93	-30	98	78
COC(=O)COc1ccc(S(=O)(=O)c2ccc(OCC(=O)OC)cc2)cc1	105	-14	129	58
COc1ccc(S(=O)(=O)N(CCc2ccccc2)CC(=O)NCc2ccccc2)cc1	109	-4	108	100
Cc1c(C(=O)Nc2ccccc2C#N)oc2ccccc12	104	-2	117	106
CCOC(=O)c1cc2ccccc2n1CCN(C)C	105	-13	98	83
Cc1cc(C)cc(OC(C)C(=O)Oc2cccc(-n3cnnn3)c2)c1 (stereo not drawn)	105	-2	nt	nt
O=C(CSc1nc(=O)[nH]c2c1CCC2)NCc1ccccc1	99	nt	98	89
COC(CNC(=O)c1coc2nc3ccccc3nc12)OC	112	nt	109	80
O=C(O)c1ccccc1C(=O)N1CCCc2ccccc21	106	44	92	100
COc1ccc(-n2nc3cc(C)c(NC(=O)c4ccc5c(c4)OCCO5)cc3n2)cc1	111	16	nt	nt
O=C(c1cc(-c2ccccc2)nc2ccccc12)N1CCN(Cc2ccccc2)CC1	97	-21	nt	nt
Cc1cccc(NC(=O)c2nn(C)c3c2COc2ccccc2-3)n1	104	2	nt	nt
Cc1nc2ccccc2c(C(=O)O)c1C(=O)O	104	0	106	100
Cc1ccc(C)n1-c1c(C(=O)NCCC(C)C)sc2ncccc12	97	nt	83	70
CCn1c(CCC(=O)NCc2ccc(C)cc2)nc2cc(S(=O)(=O)N(C)C)ccc21	nt	-20	100	90
CCc1ccc(C(=O)c2cnc3cc4c(cc3c2N2CCCC2)OCO4)cc1	105	nt	79	85
CCn1nc(C)c2c1c(=O)n(CCc1ccccc1)c(=O)n2CC(=O)NCCC(C)C	97	-4	nt	nt
Cc1ccc(Oc2ccc(C(F)(F)F)cn2)c2c1CCC2	106	5	101	104
NNC(=O)CN1CCCCCC1=O	nt	-16	91	92
CCOC(=O)c1ccc(NCc2cn[nH]c2-c2ccc(C)cc2)cc1	108	-8	100	92
COc1ccc(C(=O)Nc2nnc(S(=O)(=O)N3CCOCC3)s2)cc1	106	8	107	102
NC(=O)COc1ccc(/C=C2/NC(=O)NC2=O)cc1	105	-81	92	90
COC(=O)CSC1=C(C#N)C(c2cccc(Cl)c2Cl)C2=C(CCCC2=O)N1 (stereo not drawn)	104	-43	62	59
O=C(C1CCC(CNS(=O)(=O)c2ccccc2)CC1)N1CCCCC1 (stereo not drawn)	103	nt	119	91
Cc1ccc(-c2c(C(F)(F)F)nn3c(NCC4CCCO4)cc(C)nc23)cc1 (stereo not drawn)	102	20	nt	nt
COc1ccc(NC(=O)Cn2c(=O)n(-c3ccccc3)c(=O)c3ccc(C(=O)NCc4ccc5c(c4)OCO5)cc32)cc1	107	31	106	95
CC(NC(=O)C1C(=O)NC2(C)CC1c1ccccc1O2)c1ccccc1 (stereo not drawn)	nt	-3	91	91
Cc1ccc(-c2[nH]nc3nc(C(=O)O)cc(-c4cccc5ccccc45)c23)cc1	100	nt	101	93
Cc1cc(OCC(=O)c2ccc(F)cc2)ccc1N1C(=O)CCC1=O	105	-7	98	94
COc1ccc2oc(-c3ccc(C)c(NC(=O)Cc4ccc(Cl)cc4)c3)nc2c1	102	13	92	99
CN(c1ccccc1)C(C(=O)NC1CCCC1)c1ccc(Cl)cc1 (stereo not drawn)	97	nt	115	88
Cc1cc2[nH]c(=O)[nH]c2cc1NS(=O)(=O)c1ccc(F)cc1F	102	-21	nt	nt
CCCCCCNc1nc(NCc2ccco2)nc(OCC)n1	104	-28	83	71
CC(C)(C)c1csc(-c2ccc(OC(F)(F)F)cc2)n1	100	-25	128	86
CCc1nc2ccccc2n1CCCCOc1ccc(Cl)cc1	101	-4	87	61
NC(=S)Nc1nc2ccccc2s1	nt	-17	75	60
CC1CN(C(=O)N2CCC(C(=O)N3CCN(c4ccccn4)CC3)CC2)c2cc(Cl)ccc2O1 (stereo not drawn)	106	-3	137	83
O=C(CCCn1ncn2c(cc3occc32)c1=O)NCc1ccccc1	106	1	100	94
C[C@@H]1CN(CCCn2c3ccccc3c3ccccc32)C[C@H](C)N1	nt	0	91	87
NCCCNC(=O)c1ccco1	98	-2	97	80

Arranged by value in Sa growth inh (high to low): some entries from above
mol,Sa growth inh
CN(c1ccccc1)C(C(=O)NC1CCCC1)c1ccc(Cl)cc1 (stereo not drawn),115
COc1ccccc1CNC(=O)c1c2c(nc3ccccc13)C(=O)N(C1CCCCC1)C2,112
NC(=O)COc1ccc(/C=C2/NC(=O)NC2=O)cc1,92

The results go on.
SMILES	GIV Gai3 FP	HCMV UL50-53 inh	Sa growth inh	Sa growth inh second temp
CCCN(Cc1cccs1)C(=O)NC12CC3CC(CC(C3)C1)C2	100	nt	102	90
Nc1nc(-c2ccccc2)nn1C(=O)c1ccccc1F	100	-34	nt	nt
Cc1ccc(NC(=O)C2CCN(c3nc4ccccc4nc3C(F)(F)F)CC2)cc1F	106	nt	104	89
CN(CCc1noc(COc2ccccc2)n1)C(=O)c1ccc(F)cc1	100	-2	nt	nt
O=C(OCc1nc2ccccc2s1)C1CCN(S(=O)(=O)c2ccccc2C(F)(F)F)CC1	nt	-19	81	90
CC(Sc1nnc(-c2cccs2)n1C1CC1)C(=O)N1CCNC1=O (stereo not drawn)	nt	-9	112	83
Cn1c(=O)c2c(ncn2Cc2ccc(F)cc2)n(C)c1=O	101	-4	104	89
NC(=O)c1nn(-c2ccccc2)c(=O)cc1O	99	-23	92	99
O=C(Cc1cccc2ccccc12)OCC(=O)c1ccc(Br)cc1	nt	-8	126	84
Cc1cccc(N2CN(CCc3ccccc3)CNC2=S)c1C	100	-21	97	89
Cc1ccc(-c2noc(-c3cc(C(C)C)[nH]n3)n2)cc1	111	-33	92	98
COc1ccc(OC(=O)c2csc(Cc3c(Cl)cccc3Cl)n2)cc1	104	-22	112	91
Cc1ccc(/C=C/C(=O)NCCCn2ccnc2)cc1	106	-37	120	99
O=C(Nc1cc(=O)[nH]c(=O)[nH]1)c1cc(Br)ccc1Cl	95	-4	89	88
O=C(COc1ccccc1)NCC(c1ccc(Br)cc1)c1c[nH]c2ccccc12 (stereo not drawn)	104	-9	nt	nt
COc1ccc(C(=O)N2CCN(C34CC5CC(CC(C5)C3)C4)CC2)cc1OC	103	-29	100	98
COc1ccc(/C=C/C(=O)N2CCC(CN3C(=O)c4cccc5cccc(c45)C3=O)CC2)cc1OC	100	-28	nt	nt
Cc1ccc(NC(=O)NCCCN2CCCC2=O)cc1	110	-18	107	100
COc1cccc(C=Nc2cc(C(F)(F)F)cc(C(F)(F)F)c2)c1O	95	-4	75	73
CCn1cc(C(=O)OCc2ccccc2)c(=O)c2ccc(C)nc21	105	nt	102	82

A second format for part of the listing above.
Molecule | GIV Gai3 FP | HCMV UL50-53 inh | Sa growth inh | Sa growth inh second temp
NC(=O)c1nn(-c2ccccc2)c(=O)cc1O | 99 | -23 | 92 | 99
O=C(Cc1cccc2ccccc12)OCC(=O)c1ccc(Br)cc1 | nt | -8 | 126 | 84
Cc1cccc(N2CN(CCc3ccccc3)CNC2=S)c1C | 100 | -21 | 97 | 89

Other structures:
SMILES	GIV Gai3 FP	HCMV UL50-53 inh	Sa growth inh	Sa growth inh second temp
CCCCn1c(CCNC(=O)c2ccco2)nc2ccccc21	111	nt	104	77
Cc1ccc(Nc2nc(COC(=O)/C=C/c3ccc(C)o3)cs2)cc1	nt	14	102	103
COc1ccc(-c2c(C)nn3c(N4CCN(c5ccccc5)CC4)cc(C)nc23)cc1OC	110	-32	103	87
CCOC(=O)N1CCC(NC(=O)CCS(=O)(=O)c2ccc3c(c2)CCN3C(=O)CC)CC1	98	-20	90	89
COc1cc(C)c(Cc2cnc(N)nc2N)cc1OC	nt	-54	-0.2*	0.2*
COC(=O)CC1=CC(SCc2ccc(F)cc2)=Nc2ccccc2N1	106	-41	nt	nt
COc1ccc(OC)c(S(=O)(=O)N2CCC(n3cnc4cccnc43)CC2)c1	98	-19	nt	nt
CCN(c1ccccc1)c1cc2ccccc2c(=O)[nH]1	102	-18	86	67
CC1CCN(CCCNC(=O)Cc2ccc(NC(=O)N3CCSc4ncccc43)cc2)CC1	96	-18	nt	nt
COC(=O)c1c(C)oc(C)c1S(=O)(=O)N1CCCc2ccccc21	105	25	98	88
Cc1ccc(CC(=O)N2CCN(S(C)(=O)=O)CC2)cc1	115	31	101	97
CCOc1ccc(C2CC(=O)Nc3nc(SCc4ccccc4C)[nH]c(=O)c32)cc1OC (stereo not drawn)	104	11	96	97
c1ccc2c(c1)oc1c(N3CCCCC3)ncnc12	102	nt	97	34
C=CCOC1C=CC=CC1C(c1c(C)[nH][nH]c1=O)c1c(C)[nH][nH]c1=O (stereo not drawn)	nt	10	97	95
